Screening data from PubChem.
Marburg entry inh = qHTS for inhibitors of binding or entry into cells for Marburg Virus; 300,000 tested, 1.8% active; Marburg virus pseudotyped entry inhibition, cell reporter; control for the full effect not named in the record; about a third of the inactives were read at about 46 µM; AID 540276, 2011; Potency, µM (series often up to 37.8 µM), without a hit: at the highest dose activity change, negative = inhibition, actives largely listed as inhibitors; active = well fitted inhibition curve with a large enough effect; inconclusive = small, poorly fitted or top-dose-only effect, or effect the other way; inactive = flat fitted curve, though single readings scatter; tested in HEK293 cells; about a fifth of its hits are not listed in these tables; further: luciferase read-out
An asterisk follows results filed as active; ? = inconclusive; & = joins results of further samples; [ ] = remark or other dose. On the % scale 0 is the no-effect control and ±100 the full control effect; potency means the concentration at half of the fitted maximal effect. The list is partial, so the mix of outcomes need not match the whole.

SMILES: COC(=O)CC1=CO[C@@H](O)[C@@H]2C(CO)=CC[C@@H]12
  Marburg entry inh: 15.9%[14.2 µM]
SMILES: CCOC(=O)CCN1C(=O)[C@H]2[C@H]3[C@H](O)[C@H](O)C/C(=N/OCc4ccccc4)[C@@H]3CC[C@@H]2C1=O
  Marburg entry inh: -7.2%[14.2 µM]
SMILES: O=C1O[C@@H](N2CCN(C/C=C\c3ccccc3)CC2)c2ccccc21
  Marburg entry inh: 2.9%
SMILES: CCCNC(=O)OC[C@H]1O[C@H](CCON=C(C)CCN2CCCc3nc(C)c(C)cc32)C=C[C@H]1Oc1ccc(OC)cc1
  Marburg entry inh: ?
SMILES: COC(=O)[C@@H]1CC[C@H](C)[C@@H](c2ccc(C)cc2)N1C(=O)c1ccc(/C=N\OC[C@@H](O)COCc2ccco2)cc1
  Marburg entry inh: ?
SMILES: CCN1C(=O)NC(c2cccs2)C(C(C)=O)=C1C (stereo not drawn)
  Marburg entry inh: ?
SMILES: CCOC(=O)CCN1C(=O)[C@@H]2[C@H]3[C@H](O)[C@H](O)CC(=NO[C@@H]4O[C@H](COC(C)=O)[C@@H](OC(C)=O)[C@H](OC(C)=O)[C@@H]4OC(C)=O)[C@H]3CC[C@H]2C1=O
  Marburg entry inh: -5.6%[14.2 µM]
SMILES: C[C@H]1Cc2c(-c3ccccc3)nc3c(c2CO1)CN(C(=O)NCc1ccco1)CC3
  Marburg entry inh: 9.3%&9.3%[14.2 µM]
SMILES: Cc1cc(C)cc(CO[C@H]2C=C[C@@H](c3ccccc3)O[C@H]2CO)c1
  Marburg entry inh: -24.4%[14.2 µM]
SMILES: O=C1N=C2C=CC(Cl)=CC2C(c2ccccc2)=N1 (stereo not drawn)
  Marburg entry inh: 9.0%

SMILES: CCNc1nc(NC(C)C)nc(N(C#N)[C@@H](C)C(=O)N(C)C)n1
  Marburg entry inh: 6.0%
SMILES: COc1ccc2c(c1)[C@@]1(OCCC=C[C@@H]1C)C(=O)N2Cc1ccc(Br)cc1
  Marburg entry inh: 5.4%[14.2 µM]
SMILES: CC(C)=CCCC(C)=CCON=C1C[C@@H](O)[C@@H](O)[C@@H]2[C@H]3C(=O)N(Cc4ccccc4)C(=O)[C@@H]3CC[C@@H]12
  Marburg entry inh: 3.0%[14.2 µM]
SMILES: O=C(NC1=C(Cl)CCCC1)NC1CCCCC1Cl (stereo not drawn)
  Marburg entry inh: 11.6%[46.1 µM]
SMILES: CC(C)CO/N=C1/C[C@@H](O)[C@@H](O)[C@@H]2[C@H]3C(=O)N(c4ccc(F)cc4F)C(=O)[C@@H]3CC[C@@H]12
  Marburg entry inh: -10.3%[14.2 µM]
SMILES: C=CCOC(=O)C(C(C)=O)[C@@H](NC(=O)OC)c1ccco1 (stereo partly drawn)
  Marburg entry inh: 18.8%[14.2 µM]
SMILES: CCOC(=O)[C@@H](C)c1nc2ccccc2[nH]c1=O
  Marburg entry inh: 7.5%
SMILES: C=C(CO[C@@H]1C=C[C@@H](c2ccccc2)O[C@@H]1CO)c1ccccc1
  Marburg entry inh: -2.0%[14.2 µM]
SMILES: O[C@H]1CN(CC2CCCCC2)[C@@H](c2ccccc2)C[C@H]1n1cc(C2CC2)nn1
  Marburg entry inh: ?
SMILES: COc1cccc2c1[C@H](C=Cc1ccccc1)[C@@H]([C@H](O)COC(C)=O)OC2
  Marburg entry inh: 16.1%[14.2 µM]

SMILES: COC(=O)C1=C(C)N(Cc2ccccc2)C(=S)NC1CCc1ccccc1 (stereo not drawn)
  Marburg entry inh: 38.5%[14.2 µM]
SMILES: Cc1ccc([C@H]2/C(=C(\O)c3ccc(OC(C)C)cc3)C(=O)C(=O)N2CCN2CCOCC2)cc1
  Marburg entry inh: 0.0%
SMILES: COC1=C(OC)C(Cl)=C(CC2C(=O)OC(C)(C)OC2=O)CC1
  Marburg entry inh: -15.9%[46.1 µM]
SMILES: COC1=C[C@H](C(=O)NCCOC(C)=O)[C@@]2(C)Cc3ccccc3[C@@H]2CC1=O
  Marburg entry inh: -10.3%[14.2 µM]
SMILES: O=C1[C@H]2[C@H]3[C@H](O)[C@H](O)C/C(=N\OCc4ccccc4)[C@H]3CC[C@H]2C(=O)N1C1CCCCC1
  Marburg entry inh: -25.4%[14.2 µM]
SMILES: C=CC1=C2C=C(C3CC3)N(Cc3ccc4c(c3)OCO4)C=C2C(=O)C(C)(OC(=O)c2ccco2)C1=O (stereo not drawn)
  Marburg entry inh: -5.1%&-5.1%[14.2 µM]
SMILES: COC(=O)NC(CC(C)=O)c1ccc(Cl)cc1 (stereo not drawn)
  Marburg entry inh: 2.9%[14.2 µM]
SMILES: CCCC[C@]12Cc3cc(C#N)ccc3[C@H](O1)c1c(cc(C)n(Cc3ccccc3)c1=O)O2
  Marburg entry inh: -22.7%[14.2 µM]
SMILES: COc1cccc([C@@H]2Oc3ccc(Br)cc3C(=O)[C@@H]2OC(=O)N[C@H](C)C2CCCCC2)c1
  Marburg entry inh: -29.7%[14.2 µM]
SMILES: COc1ccc(/C=C/NC(=O)c2ccc(OC)cc2)cc1
  Marburg entry inh: 17.8%[14.2 µM]

SMILES: CCN1C(=O)NC(c2ccco2)C(C(=O)OC)=C1C (stereo not drawn)
  Marburg entry inh: ?
SMILES: COc1ccc(COC(=O)N/N=C2\C[C@@H](O)[C@@H](O)[C@@H]3[C@@H]4C(=O)N(c5cccc(Oc6ccccc6)c5)C(=O)[C@@H]4CC[C@@H]23)cc1
  Marburg entry inh: 9.0%[14.2 µM]
SMILES: Cc1cc2c(nc1C)CCCN2C[C@@H](O)CN1CCN(C)CC1
  Marburg entry inh: 17.7%[14.2 µM]
SMILES: CC1(C)CC(=O)C2=C(C1)O[C@@]1(CCCCN3C(=O)c4ccccc4C3=O)Cc3ccccc3[C@H]2O1
  Marburg entry inh: 10.7%[14.2 µM]
SMILES: CCOC(=O)N[C@@]1(C(F)(F)F)C(=O)NC(C)=C1C#N
  Marburg entry inh: 0.9%
SMILES: CCOC(=O)CCN1C(=O)[C@H]2[C@H]3[C@H](O)[C@H](O)C/C(=N\OCc4ccccc4)[C@@H]3CC[C@H]2C1=O
  Marburg entry inh: -7.2%[14.2 µM]
SMILES: C=C1C(C)(C)[C@@H]2CC[C@]1(C(=O)Nc1nccs1)C2
  Marburg entry inh: -9.3%
SMILES: COc1ccc(OC[C@@H]2CC3[C@@H](c4ccc(Br)cc4)[C@H](C)CC[C@H]3C(=O)O2)cc1 (stereo partly drawn)
  Marburg entry inh: -5.2%[14.2 µM]
SMILES: COc1cccc([C@H]2Oc3ccc(OC)cc3C(=NO[C@H](C)CN3CCCc4nc(C)c(C)cc43)[C@H]2O)c1
  Marburg entry inh: ?
SMILES: CCOc1ccc(CS[C@@H](CC(=O)O)C(=O)O)cc1
  Marburg entry inh: 7.6%

SMILES: CCCCCCCC1=CC2=CC(=O)C(C)(O)C(=O)C2=CN1CCCC (stereo not drawn)
  Marburg entry inh: ?
SMILES: COC(=O)[C@@H]1CC[C@H](C)[C@@H](c2ccc(C)cc2)N1C(=O)c1ccc(C=NO[C@@H](C)c2cc(-c3c(C)cc(C)cc3C)no2)cc1
  Marburg entry inh: 6.5%[14.2 µM]
SMILES: CSC1=NC(=O)C2=C3CC(C)(C)OCC3SC2=N1 (stereo not drawn)
  Marburg entry inh: 14.2%[46.1 µM]
SMILES: Cc1cc(F)ccc1O[C@H]1C=C[C@@H](c2ccc3c(c2)OCO3)O[C@@H]1CO
  Marburg entry inh: 14.2%[14.2 µM]
SMILES: C[C@@H]1/C=C/CC(=O)OC[C@H](C)C(=O)OC[C@H]2O[C@H]1C=C[C@H]2O
  Marburg entry inh: -13.6%[14.2 µM]
SMILES: COc1cccc([C@H]2Oc3ccc(OC)cc3C(=NO[C@@H](C)CN3CCCCc4nc(C)c(C)cc43)[C@H]2O)c1
  Marburg entry inh: ?
SMILES: COc1ccc2c(c1)[C@@H](NC(=O)C(F)(F)F)[C@@H]1CCCC[C@]21c1ccccc1
  Marburg entry inh: ?
SMILES: CCN1C(=O)[C@H]2[C@H]3[C@H](O)[C@H](O)C/C(=N\OC[C@H]4O[C@H](c5ccccc5)C=C[C@@H]4Oc4ccc(OC)cc4)[C@@H]3CC[C@H]2C1=O
  Marburg entry inh: -28.3%[14.2 µM]
SMILES: C[C@@H]1C=CCCO[C@]12C(=O)N(Cc1ccccc1C(F)(F)F)c1cccc(Br)c12
  Marburg entry inh: ?
SMILES: C=CC[C@@H]1C=C(C(=O)OC)N(C(=O)C(F)(F)F)[C@@H](c2ccccc2Br)[C@@H]1C
  Marburg entry inh: 9.1%[14.2 µM]

SMILES: CC[C@H]1OC(c2ccccc2)[C@H](C)[C@H]2O[C@@H]2[C@@H]1C(=O)OC (stereo partly drawn)
  Marburg entry inh: -5.4%[14.2 µM]
SMILES: CN1C(=O)C[C@@H](N2CCN(c3ccc(Cl)c(Cl)c3)CC2)C1=O
  Marburg entry inh: -7.5%
SMILES: O=C1CCC2=C(CC(O)=C(O)C2)O1
  Marburg entry inh: 4.9%
SMILES: CC(C)=CCC/C(C)=C/CO/N=C1\C[C@@H](O)[C@@H](O)[C@@H]2[C@@H]3C(=O)N(Cc4ccc5c(c4)OCO5)C(=O)[C@@H]3CC[C@H]12
  Marburg entry inh: -43.7%[14.2 µM]
SMILES: CC(C)CO/N=C1/C[C@@H](O)[C@@H](O)[C@@H]2[C@@H]3C(=O)N(Cc4ccc5c(c4)OCO5)C(=O)[C@H]3CC[C@H]12
  Marburg entry inh: -29.9%[14.2 µM]
SMILES: O=C(N[C@H](c1cccc(Br)c1)[C@@H]1CCCC=C1c1ccccc1)C(F)(F)F
  Marburg entry inh: -42.6%[14.2 µM]
SMILES: CCN(CC)CCCn1c(C)cc2c(c1=O)[C@@H](c1cccc(Cl)c1)C(C#N)=C(N)O2
  Marburg entry inh: 11.2µM*
SMILES: CCCCCC(=O)N1C[C@@H](O)[C@H](n2cc(COC(=O)c3ccccc3)nn2)C[C@H]1c1ccc(Cl)cc1
  Marburg entry inh: ?
SMILES: CCOC(=O)[C@@]1([C@@H](NC(=O)OC)c2cccc(F)c2)CCCC1=O
  Marburg entry inh: -13.4%[14.2 µM]
SMILES: CCC(=O)Nc1ccc(-c2nnc(SCC(=O)NC[C@H]3CCCO3)n2C)cc1
  Marburg entry inh: -6.6%

(cont.)
structure,Marburg entry inh
COC(=O)[C@@]1(C=C2c3ccc(F)cc3[C@@H](OC)[C@@H]2C)[C@@H]2Oc3ccccc3[C@@H]21,-16.8%[14.2 µM]
O=C1N=NC(c2ccccc2)c2ccccc21 (stereo not drawn),1.3%
CCOC(=O)c1c(NC(=O)C2CCCCC2C(=O)O)sc2c1CCCC2 (stereo not drawn),-12.1%
CC(C)CO/N=C1\C[C@@H](O)[C@@H](O)[C@@H]2[C@@H]3C(=O)N(C4CCCCC4)C(=O)[C@@H]3CC[C@H]12,-20.1%[14.2 µM]
CC(C)CO/N=C1\C[C@@H](O)[C@@H](O)[C@@H]2[C@@H]3C(=O)N(Cc4ccccc4)C(=O)[C@@H]3CC[C@H]12,0.7%[14.2 µM]
CCCSC1=C(C#N)[C@H](c2ccc(OC)cc2)C2=C(CC(C)(C)CC2=O)N1,-10.0%
CCOC(=O)OC[C@H]1O[C@H](C#Cc2ccccc2)C=C[C@H]1OC(=O)OCC,?
COC(=O)C1=C(C(=O)OC)[C@@H]2Nc3ccccc3[C@@]23C[C@@H](C(=O)OC)N(C(=O)NCCBr)C3=N1,?
COc1cccc([C@H]2/C(=C(\O)c3ccc(OC)c(OC)c3)C(=O)C(=O)N2c2cc(C)on2)c1,-12.3%[46.1 µM]
Cc1cc2c(c(=O)o1)[C@H]1O[C@](c3ccsc3)(Cc3c1ccc1ccccc31)O2,?
CCN1C(=NCc2cc(OC)c(OC)c(OC)c2)NC(c2cccc(C(F)(F)F)c2)C(C(=O)OC)=C1C (stereo not drawn),12.8%[14.2 µM]
CC(C)OC(=O)[C@H](C)NC(=O)N1CCc2nc(-c3ccccc3)c3c(c2C1)CO[C@@H](C)C3,-2.4%[14.2 µM]
CCCC[C@]12Cc3cc(C#N)ccc3[C@H](O1)c1c(cc(C)n(-c3ccccc3)c1=O)O2,-13.9%[14.2 µM]
CCOC(=O)CC1N=NN=N1,18.8%[46.1 µM]
C=COC[C@@H]1CN2[C@@H](CC[C@@H](C)[C@@H]2c2ccc(Br)cc2)C(=O)O1,?
Cc1cc2c(c(=O)o1)[C@H]1O[C@](c3ccsc3)(Cc3ccccc31)O2,10.4%[14.2 µM]
O=c1oc2ccccc2c2c1[C@H]1O[C@](c3ccsc3)(Cc3ccccc31)O2,?
CCC[C@H](C)n1[nH]c(=O)cc1N,29.9%
COc1cccc(NC(=O)[C@@H]2CC(=O)n3cnnc3S2)c1,13.8%
COCn1c2ccccc2c2nnc(C(=O)O)nc21,17.4%&17.4%[14.2 µM]
C=CCN1c2ccc(Br)cc2C(O)CS1(=O)=O (stereo not drawn),?
COC(=O)NC(CC(C)=O)c1cccc(F)c1 (stereo not drawn),-6.7%[14.2 µM]
CCCCCCC#Cc1cc(OC)c(OC)cc1C(N1CC(C)c2ccccc21)N1CC(C)c2ccccc21 (stereo not drawn),?
O=C(N/N=C1/C[C@@H](O)[C@@H](O)[C@@H]2[C@@H]3C(=O)N(c4cccc(Oc5ccccc5)c4)C(=O)[C@H]3CC[C@H]12)OCc1ccccc1,4.0%[14.2 µM]
Cc1ccccc1NC(=O)CN1C(=O)N/C(=C/c2cccn2-c2cccc(C(=O)O)c2)C1=O,-2.3%[46.1 µM]
CN1C(=O)N(c2ccccc2)[C@@H](Nc2nncs2)C1(C)C,-0.1%
COc1ccc(O[C@H]2C=C[C@@H](c3ccccc3)O[C@@H]2CO/N=C2/[C@H]3CCn4c(=O)n(-c5ccccc5)c(=O)n4[C@H]3[C@H](O)[C@@H]3O[C@H]23)cc1,4.6%[14.2 µM]
COCCN1C(=O)C2=C(C1=O)C1N(C)c3ccccc3[C@@]13C[C@@H](CO)N(S(=O)(=O)c1ccc(OC)cc1)C3=N2 (stereo partly drawn),-2.8%[14.2 µM]
C=CCN=C1N[C@@H](c2ccccc2)[C@H](C(=O)OC)[C@@H](C)N1CC,-24.9%[14.2 µM]
